Mtb betalactam: beta-lactam sensitization of Mtb H37Rv; inhibition, % at 25 µM; 330,000 compounds, 0.27% hits; M. tuberculosis H37Rv growth with meropenem, percent inhibition; hits of this screen are not shown here;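 active = about 74% or more and at least 40 points above the plate without the antibiotic, then above 30% in a dose series; inconclusive = first-round hits that could not be retested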;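 note: growth measured after seven days incubation then overnight dye step; 0% = bacteria only wells and 100% = bacteria with antibiotic; twin plates without the antibiotic show which effects depend on it; some results filed as inactive read as strong as hits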
YopH PTP inh: YopH (Yersinia) phosphatase inhibition; fluorescence Ex485/Em525; inhibition, %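 (about 10 µM by stock and volumes)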; 140,000 compounds, 0.16% hits;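 active = inhibition of 50% or more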;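 note: controls were vehicle for no effect and minimum signal wells for full effect; inactives centre near -20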
Arbovirus anti: arbovirus infection inhibition. 200,000 compounds, 0.37% hits. AID 1251. inhibition, % at 10 µM. arbovirus infection cell-based antiviral screen;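 active = inhibition from about 30%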;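 note: bluetongue infection of BSR cells; cell survival read as ATP light after 72 h; 0% = infected wells without compound and 100% = uninfected wells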
RecA splice inh: Mtb RecA intein splicing inhibition; cell-free RecA intein splicing, fluorescence; inhibition, %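 (about 9 µM by stock and volumes)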; 290,000 compounds, 0.75% hits; in the data active = inhibition above about 30%; inconclusive = no clear call, values can overlap the other calls;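 note: 0% = vehicle wells and 100% = reference inhibitor control wells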
Target sequence (P9WHJ3 whole entry, looked up, canonical isoform): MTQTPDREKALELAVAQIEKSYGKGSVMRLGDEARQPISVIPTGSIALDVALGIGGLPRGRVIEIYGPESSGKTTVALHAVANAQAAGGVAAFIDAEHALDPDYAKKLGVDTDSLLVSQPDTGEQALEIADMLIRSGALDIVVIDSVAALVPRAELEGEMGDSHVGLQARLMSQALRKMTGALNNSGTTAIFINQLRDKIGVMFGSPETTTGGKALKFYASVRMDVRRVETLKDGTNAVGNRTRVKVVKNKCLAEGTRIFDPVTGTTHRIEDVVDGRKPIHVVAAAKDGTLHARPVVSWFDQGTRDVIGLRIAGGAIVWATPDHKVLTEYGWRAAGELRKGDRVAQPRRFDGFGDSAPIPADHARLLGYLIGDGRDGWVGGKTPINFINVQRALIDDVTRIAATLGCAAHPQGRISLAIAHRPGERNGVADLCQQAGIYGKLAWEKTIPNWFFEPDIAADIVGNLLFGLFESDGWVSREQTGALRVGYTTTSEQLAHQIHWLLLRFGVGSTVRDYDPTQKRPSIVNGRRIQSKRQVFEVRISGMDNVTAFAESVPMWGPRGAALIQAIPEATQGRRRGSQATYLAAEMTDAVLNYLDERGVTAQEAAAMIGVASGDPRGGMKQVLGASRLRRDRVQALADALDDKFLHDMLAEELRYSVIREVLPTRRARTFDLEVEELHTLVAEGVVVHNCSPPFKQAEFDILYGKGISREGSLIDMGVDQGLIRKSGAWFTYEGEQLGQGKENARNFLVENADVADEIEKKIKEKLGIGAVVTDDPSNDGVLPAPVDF
Mtb growth: M. tuberculosis H37Rv growth inhibitors, H37Rv strain (AID 1626) | M. tuberculosis H37Rv growth inhibition; higher % means a stronger effect | 220,000 compounds, 0.95% hits | inhibition, % at 10 µM, or IC50 in µM where a hit was titrated;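 active = confirmed in a dose series; inconclusive = inhibition above 80% but not taken into the dose series; inactive = below 80% or under 30% at every dose of the series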;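 note: bacteria incubated seven days before Alamar blue readout; 0% = bacteria only wells and 100% = bacteria with antibiotic wells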
Arbovirus anti repeat: also measured in Arbovirus anti; calls as there; inhibition, %; measured here: 10K subset replicate screen; many hits read low in the repeat;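 first of two repeat runs on a subset; 0% = infected and 100% = uninfected wells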
* hit, by the source's call; ? = inconclusive; · = no result given. Not all compounds are listed; count on the stated rates, not on these rows.

SMILES | Mtb betalactam | YopH PTP inh | Arbovirus anti | RecA splice inh | Mtb growth | others
CCCOc1ccc(N2C(=O)CC(S/C(N)=N/N=C(\C)c3cccs3)C2=O)cc1 (configuration not stated) | 3.0 | -28.5 | 14.5 | -1.1 | 1.8%
O=[N+]([O-])c1ccc(-c2cnc(NO)nc2)cc1 | -6.3 | -27.1 | -14.3 | -2.9 | 10.2%
COC(=O)Nc1ccc(SCC(=O)c2cccc([N+](=O)[O-])c2)cc1 | 5.5 | · | · | 4.0 | ·
CC(C)c1ccc(NC2CCCN(C(=O)c3cnc4ccccn4c3=O)C2)cc1 (configuration not stated) | -3.6 | · | · | 4.4 | ·
Cc1ccc(NC(=S)NC2CCN(Cc3ccccc3)CC2)c(C)c1 | -2.3 | -16.6 | -0.1 | 0.9 | 4.9%
COc1ccc(OC)c(CN2CCN(C(=O)CCC(=O)c3cccs3)CC2)c1 | -2.7 | · | · | -3.4 | ·
CC(C)OP(=O)(c1ccc(N(C)C)cc1)C(Nc1ccccc1)c1ccccc1 (configuration not stated) | -2.5 | · | · | -0.3 | 1.8%
Cc1cc(C)n(C(=O)c2ccc(C)c(Br)c2)n1 | 4.9 | · | · | 1.4 | ·
COc1cccc(C2N(c3ccc(Cl)c(Cl)c3)C(=O)C3CCCN32)c1OC (configuration not stated) | 1.3 | -21.3 | 1.5 | 2.4 | 1.1%
O=C(NNC1CC(=O)N(c2ccc3c(c2)OCCO3)C1=O)c1ccccc1 (configuration not stated) | 4.5 | -8.5 | 4.0 | -0.3 | -5.8%
COc1ccc(C(=O)COc2ccc3ccc(=O)oc3c2)c(OC)c1 | 99.6 | · | · | 0.1 | ·
CCS(=O)(=O)n1nc(-c2ccc(OC)cc2)nc1N | 3.1 | · | 13.5 | 1.4 | -5.5%
CC(C)N(C(=O)CSc1nnc(-c2ccc3c(c2)OCO3)n1C)C(C)C | -8.4 | · | 4.1 | · | 2.7%
CCOc1ccc(/C=N/Nc2ccc(Cl)nn2)c(O)c1 | 97.3 | · | · | -6.7 | ·
CCOc1cc(/C=C2\SC(=Nc3ccc(F)cc3)N(c3ccc(F)cc3)C2=O)ccc1OCC(=O)O | 6.8 | · | 7.1 | · | 4.2%

Sorted by molar mass (ascending): some entries from above.
SMILES | Mtb betalactam | YopH PTP inh | Arbovirus anti | RecA splice inh | Mtb growth | others
CCOc1ccc(/C=N/Nc2ccc(Cl)nn2)c(O)c1 | 97.3 | · | · | -6.7 | ·
COC(=O)Nc1ccc(SCC(=O)c2cccc([N+](=O)[O-])c2)cc1 | 5.5 | · | · | 4.0 | ·
Cc1ccc(NC(=S)NC2CCN(Cc3ccccc3)CC2)c(C)c1 | -2.3 | -16.6 | -0.1 | 0.9 | 4.9%
CC(C)N(C(=O)CSc1nnc(-c2ccc3c(c2)OCO3)n1C)C(C)C | -8.4 | · | 4.1 | · | 2.7%
CCCOc1ccc(N2C(=O)CC(S/C(N)=N/N=C(\C)c3cccs3)C2=O)cc1 (configuration not stated) | 3.0 | -28.5 | 14.5 | -1.1 | 1.8%
CCOc1cc(/C=C2\SC(=Nc3ccc(F)cc3)N(c3ccc(F)cc3)C2=O)ccc1OCC(=O)O | 6.8 | · | 7.1 | · | 4.2%

The list goes on:
SMILES | Mtb betalactam | YopH PTP inh | Arbovirus anti | RecA splice inh | Mtb growth | others
O=C1CC(NS(=O)(=O)c2ccc([N+](=O)[O-])cc2)CN1c1ccc(Cl)cc1 (configuration not stated) | -13.2 | · | · | -2.3 | ·
O=C1NC2(CCCCCC2)C(=O)N1Cc1ccccc1Cl | 3.1 | · | · | 1.9 | ·
CC(C)C1Oc2ccccc2N(CC(=O)N(Cc2ccccn2)C2CC2)C1=O (configuration not stated) | -0.7 | -22.7 | -2.0 | 2.4 | -8.7%
CC(C)(C)c1ccc(Cn2ccc(-c3ccc4c(c3)OCO4)n2)cc1 | -8.8 | -37.0 | 11.9 | 9.9 | -3.0%
O=C(Cc1ccccc1)NC(Oc1ccccc1Cl)C(Cl)(Cl)Cl (configuration not stated) | 1.8 | -26.6 | 0.6 | -0.5 | -2.5%
CCOC(=O)CC(=O)CSc1ccc2nnc(-c3ccc(C)cc3)n2n1 | 5.3 | -1.1 | -4.5 | 0.8 | -3.3%
CCc1noc(C)c1C(=O)N1CCCC(N2CCN(c3cccc(Cl)c3)CC2)C1 (configuration not stated) | -14.3 | · | · | -1.7 | ·
CCOC(=O)C(O)(c1ccc(N(C)C(=O)COc2ccccc2)cc1)C(F)(F)F (configuration not stated) | 1.5 | -1.2 | · | -9.9 | -4.1%
CCC(=O)Oc1ccc(C(=O)Nc2cccc(C(=O)c3ccccc3)c2)cc1 | -1.7 | -22.7 | -6.8 | 35.9* | 10.2%
CCOC(=O)C1CCN(C(=O)c2ccc(N(C)S(=O)(=O)c3ccc(OC)cc3)cc2)CC1 | 1.6 | · | 4.6 | 1.2 | 5.5%
Cc1cccc(Cn2c(N3CCN(c4ccccc4)CC3)nc3c2c(=O)n(C)c(=O)n3C)c1 | 83.9 | -33.0 | -19.0 | 1.4 | 5.2%
COC(=O)[C@@]1(Cc2ccc(F)cc2)[C@H]2c3cc(C(=O)N(C)C)n(Cc4ccc(OC(F)(F)F)cc4)c3C[C@H]2CN1C(=O)c1ccccc1 | -6.2 | 6.2 | -21.8 | 11.4 | ·
CN(Cc1cccc(F)c1)C(=O)Cc1ccc(S(=O)(=O)N2CCOCC2)s1 | -11.4 | · | · | 2.2 | ·
COCCN(C(=O)Cc1cccs1)C(C(=O)NC1CCCC1)c1cc(OC)c(OC)c(OC)c1 (configuration not stated) | -3.5 | · | 9.4 | -5.5 | -3.5%
COc1cc(NC(=S)NCc2cccnc2)c(OC)cc1Cl | -2.8 | · | 4.8 | -3.3 | 6.0%
CN1CCN(C(=O)NC2CCCCC2)CC1 | 13.6 | -20.8 | 6.0 | -0.3 | -11.7%
Nc1nonc1C(=O)NCCc1ccccc1 | -0.1 | 4.7 | 0.0 | 1.4 | -1.9% | Arbovirus anti repeat=1.8
Fc1ccc(-c2csc3ncnc(Cl)c23)cc1 | 1.1 | -26.9 | -2.6 | 4.2 | -1.6%
Cc1c(NC(=O)Nc2cccc(Cl)c2Cl)c(=O)n(-c2ccccc2)n1C | -3.0 | · | · | 1.5 | ·
O=C(OCC(=O)N1CCN(c2ccccc2)CC1)c1ccco1 | · | -36.1 | 2.5 | · | 7.7%
COc1cccc(NC(=O)C2=COCCO2)c1 | 13.0 | · | · | -1.0 | ·
COc1ccc(C(=O)NOCc2ccccc2)cc1 | -7.0 | · | · | 3.9 | ·
Cc1ccc(C(=O)NCC(=O)OCC(=O)NC2CCS(=O)(=O)C2)cc1C (configuration not stated) | -9.7 | -29.4 | 0.5 | -1.6 | -3.5%
O=C(O)C1CCC(=O)N1C1c2ccccc2Oc2ccccc21 (configuration not stated) | 2.6 | -36.1 | 10.1 | 1.1 | 1.2% | Arbovirus anti repeat=0.3
Cc1ccccc1/C=N\NC(=O)c1csnn1 | · | -29.7 | 3.7 | 1.9 | 4.7%
Cc1c(C(=O)NCC(c2ccco2)N(C)C)oc2c(Cl)cccc12 (configuration not stated) | -6.3 | · | · | 0.7 | ·
O=C1/C(=C\c2ccccn2)SC(=S)N1c1ccc(S(=O)(=O)Nc2nccs2)cc1 | -1.3 | · | · | -0.5 | 5.1%
Cc1ccsc1/C=N\NC(=O)c1n[nH]c2c1CCC2 | 3.6 | -24.8 | -8.3 | -1.6 | 8.6%
COc1cccc(COc2ccc(N(C)S(=O)(=O)c3ccccc3)cc2)c1 | 4.5 | · | · | 13.6 | ·
O=C1C/C(=C\c2c(F)cccc2Cl)N2CCC1CC2 | -1.3 | · | 3.5 | -2.3 | -7.0%
COc1cc(OC)c(C2=NOC(C(=O)O)C2)cc1Cl (configuration not stated) | -2.2 | 13.9 | 2.4 | 1.4 | -8.9%
Cn1cnnc1SCC(=O)Nc1cc(S(=O)(=O)N2CCCCC2)ccc1Cl | -4.7 | · | · | 0.3 | 55.3%
COc1ccc(-n2nc3c(c2NC(=O)c2ccc(Br)cc2)CS(=O)C3)cc1 (configuration not stated) | 1.3 | 0.7 | 6.2 | 1.5 | 14.4% | Arbovirus anti repeat=-2.8
COc1cc(/C(C)=N/NC(=O)CSc2nc3ccccc3[nH]2)ccc1O | -8.5 | · | · | -0.5 | -0.1%
Cc1cccc(C(=O)NCC(=O)NCCSc2ccc(Br)cc2)c1 | -4.8 | · | · | 0.7 | ·
O=c1c2ccccc2oc2cc(C#Cc3ccccn3)ccc12 | -11.8 | · | · | 0.9 | -9.9%
CSc1ccc(S(=O)(=O)Nc2cccc(F)c2)cc1 | 6.0 | -11.3 | 3.4 | -1.0 | 4.0%
O=c1cc(Cl)c(-c2ccccc2)nn1Cc1ccc(Cl)cc1 | 7.7 | · | · | 23.0 | ·
Cc1ccc(C(=O)NC2CCCC2)s1 | -11.8 | · | · | 0.0 | ·
CCCN(C(=O)CCNC(=O)Cn1cnc2ccccc2c1=O)c1cccc(Cl)c1 | 1.7 | · | · | -2.3 | ·
Cc1ccc(CCNC(=O)C2CCC(=O)N(CC3CCCCC3)C2)cc1 (configuration not stated) | 1.9 | · | · | -0.8 | ·
Cc1ccc(C)c(N(C(=O)c2csnn2)C(C(=O)NC2CCCCC2)c2ccncc2)c1 (configuration not stated) | -4.8 | · | · | 1.2 | ·
Cc1ccc(CC(=O)Nc2nccs2)cc1 | -0.2 | · | · | 0.9 | ·
COc1ccc(C(=O)Nc2ccc([N+](=O)[O-])cn2)c(OC)c1 | 3.2 | -15.8 | -17.2 | 1.2 | -0.1%
O=P(COc1ccccc1)(c1ccccc1)c1ccccc1 | 0.7 | -28.6 | 5.4 | 1.3 | -5.7%
OC(CNCc1ccc2c(c1)OCO2)COc1ccccc1 (configuration not stated) | -3.9 | · | · | -0.3 | -4.2%
CC(CN1CCOCC1)C(=O)O (configuration not stated) | 0.5 | -33.8 | 0.7 | 2.8 | -3.1%
O=C(CNC(=O)c1ccccc1F)c1ccc(Br)cc1 | 6.7 | · | · | -0.4 | ·
COc1ccc(C)cc1NC(=O)CNC(=O)Cn1ccc2ccccc2c1=O | -1.7 | -17.5 | 1.4 | 4.3 | 1.8% | Arbovirus anti repeat=3.1
O=C(c1cc(-c2ccc(Cl)cc2)on1)N1CCCCCC1 | -2.8 | · | · | -0.6 | ·
COCCC(=O)N1CCCC(C(=O)c2ccccc2SC)C1 (configuration not stated) | 2.5 | · | · | -0.5 | ·
Oc1ccccc1/C=N/NC(=S)NC1CC2C=CC1C2 (configuration not stated) | 96.5 | · | · | 0.9 | ?
Cc1ccc(SCc2c(C#N)c3ccccc3n2C)cc1 | · | -8.1 | -7.4 | 14.8 | -5.7%
CCOc1ccc(NC(=O)CS(=O)(=O)c2cn(C)c3ccccc23)cc1 | -6.0 | -9.8 | 2.4 | -1.8 | -0.3%
CN(Cc1nc(-c2ccncc2)no1)S(=O)(=O)c1ccccc1 | -0.7 | 0.5 | 4.7 | 24.8 | 0.6%
Cc1cc(=O)oc2cc(OCC(=O)OCC(=O)Nc3ccccc3F)ccc12 | -6.1 | · | 15.3 | -0.4 | -5.7%
CCCCC(=O)N1CCCC(c2nc3c(nnn3Cc3cc(C)ccc3C)c(=O)[nH]2)C1 (configuration not stated) | 12.6 | -31.1 | -41.9 | 1.9 | -11.6%
Cc1cccc(CNC(=O)C2CCCN(c3nn4c(=O)cc(C)nc4s3)C2)c1 (configuration not stated) | -14.0 | · | · | 0.4 | ·
O=C(C[n+]1ccccn1)c1ccccc1 | 6.1 | · | · | 2.3 | ·
CCN1CCN(CCNC(=O)CCCCCn2c(=O)[nH]c3cc(C(=O)OC)ccc3c2=O)CC1 | 10.8 | -27.0 | 5.3 | -1.3 | -6.0%

Continued.
SMILES | Mtb betalactam | YopH PTP inh | Arbovirus anti | RecA splice inh | Mtb growth | others
Nc1cc(=O)nc(SCC(=O)NC2CCCCC2)n1-c1ccccc1 | -6.9 | -17.0 | 2.6 | -1.6 | -6.4%
CC(=O)OCCN(CCCn1c(-c2ccncc2)nc2ccccc21)c1nc(CN2CCCCC2)cs1 | -2.5 | · | · | -2.8 | ·
O=C1CC(=O)N(c2cccc(F)c2)N1 | 30.6 | · | -30.1 | 4.3 | 3.7%
COc1cc(C(CCN2CCCC2)c2c(OC)cc(OC)c3ccc(=O)oc23)cc(OC)c1OC (configuration not stated) | -2.6 | · | · | -1.6 | -13.0%
Cc1cc(OCC(=O)NCC(C)C)cc(C)c1Br | -1.2 | -7.7 | -0.1 | -2.6 | -9.0%
Cc1cccc(N2CCN(c3nc4ccc(Cl)cc4n4cnnc34)CC2)c1C | 3.2 | -11.2 | -12.6 | -0.9 | 4.8% | Arbovirus anti repeat=-11.9
COc1ccc(/C=N/n2cnnc2)cc1Oc1nc(Cl)ncc1F | -2.6 | · | 28.6 | 1.8 | 4.4%
CN1CCN(C(=O)C2=C[C@@H](c3csc4ccccc34)C[C@@H](OCc3ccc(CO)cc3)O2)CC1 | 86.6 | · | 3.5 | -0.7 | 7.3%

Screening data: PubChem BioAssay, several laboratories
